# NPYLR7 agonist: mosquito NPYLR7 agonism; AID 1259423; activation, % at 10 µM; HEK293T NPYLR7/Galpha15, GCaMP6s calcium fluorescence; 270,000 tested, 0.15% active; in the data active means activation above about 40%;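 further: 0% = vehicle and 100% = reference agonist at the receptor; some compounds past the cut are filed as inactive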
# NPYLR7 agonist max-min: further read-out of NPYLR7 agonist, marked with its call; activation, %; measured here: Max-Min RFU normalised activation; some inactives read as strong as hits;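 span of the calcium signal over five minutes; 0% = vehicle and 100% = native peptide agonist; compound fluorescence can raise it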
# Numbers without * were called inactive; & = joins results of further samples. A portion of the library; rates above refer to the full screens.
smiles | NPYLR7 agonist max-min | NPYLR7 agonist
CCCNC(=O)C1CCC(Cn2c(=O)c3sccc3n(Cc3cccc(C)c3)c2=O)CC1 (stereo not drawn) | 8 | 9
CC(Oc1ccc(C#N)cc1)C(=O)Nc1ccc2c(c1)OCCO2 (stereo not drawn) | -1 | 1
COc1ccc(Cl)c2sc(N(CCCN(C)C)C(=O)c3ccc([N+](=O)[O-])o3)nc12 | 7 | 13
Cc1ccc(Oc2ccc3c(C4CC4)noc3n2)cc1F | 12 | 22
C#CCn1c(=NC(=O)c2ccn(CC)n2)sc2cc(S(N)(=O)=O)ccc21 | -4 | -2
CSc1nc(CN(C)Cc2cccc(Cl)c2Cl)cc(=O)[nH]1 | 1 | 5
O=C(Nc1ccc2nc([C@@H]3O[C@H](CO)[C@@H](O)[C@H]3O)[nH]c2c1)Nc1ccccc1C(F)(F)F | 9 | 1
Cc1cc(CNC(=O)CN2CCOC2=O)c2[nH]c(-c3ccccc3)c(C)c2c1 | 11 | 14
Cc1nnsc1C(=O)Nc1nn(C)c2c1CC(C)C(=O)N2 (stereo not drawn) | -19 | -15
COc1ccc(CCNC(=O)c2ccccc2N2CCC(NC(=O)COc3ccccc3)CC2)cc1 | -9 | -10
Cc1ccccc1-n1ncc2c(C)nn(Cc3cccc(F)c3)c(=O)c21 | -5 | -6
CC1(C)OC(/C=C/c2ccc(O)c(O)c2)=CC(c2ccccc2)=[O+]1 | 13 | 13
O=C1C(C(c2ccccc2Cl)N2CCC3(CC2)OCCO3)Sc2nc(-c3ccco3)nn21 (stereo not drawn) | -5 | -2
CN(C)S(=O)(=O)c1ccc(C(=O)NCc2nnnn2-c2ccc(Cl)cc2)cc1 | -1 | 1
Cc1cc(Br)cc2c(N=NC(=O)c3ccccc3O)c(O)[nH]c12 | -8 | -1
OC(c1ccccc1)c1ncc[nH]1 (stereo not drawn) | 1 | 3
Cc1cccn2c(=O)cc(CSc3nnnn3C3CC3)nc12 | 5 | 0
COC(=O)C1=C(C)NC(=O)NC1c1ccc(Cl)cc1 (stereo not drawn) | -7 | 1
CC(=O)Nc1cccc(C(=O)N(C)Cc2ccc(C)cc2)c1 | 1 | 4
C=CCNS(=O)(=O)c1ccc(Cl)c(C(F)(F)F)c1 | 0 | 1
Cc1cccc(NC(=O)CNC(=O)CN2CCCC2c2cccs2)c1C (stereo not drawn) | -3 | -2
Cc1ccc(COC2C[C@](OCc3ccc(F)cc3)(C(=O)NCCN3CCCC3)C[C@H]3OC(C)(C)O[C@@H]23)cc1 (stereo partly drawn) | 12 | 9
COCCN1CCCC(O)(CN2CCC(Oc3cccnc3)CC2)C1=O (stereo not drawn) | 9 | 12
N#Cc1cc2c(=O)n3ccccc3nc2n(-c2nccs2)c1=O | 2 | 6
Cc1nn(C)c(C)c1CCC(=O)NCC(C)c1ccsc1 (stereo not drawn) | -1 | -1
Brc1ccc2nc(CSc3nnc4c(n3)[nH]c3ccccc34)cn2c1 | 12 | 13
Cc1n[nH]c(C)c1Sc1ccccc1NC(=O)c1nccn1C | 1 | 10
COc1cc(CNC(=O)c2c(C)noc2-c2ccncc2)cc(OC)c1 | -3 | 2
Cc1cc(C)n(-c2ccc(C(=O)N[C@@H]3C[C@@H]4C[C@H]([C@H]3C)C4(C)C)cc2)n1 | -30 | -20
Cc1ccccc1C(c1ncccc1C)N(C)C(=O)C1CCN(CCc2ccc3c(c2)OCO3)CC1 (stereo not drawn) | 7 | 16
O=S1(=O)CCN2C=C(Cc3ccc(Cl)cc3)SC2=N1 | -3&-5 | -2&-4
Cc1ccc(C)c(C2c3cccn3CCCN2Cc2ccncc2)c1 (stereo not drawn) | 7 | 9
C=C1c2ccccc2NC(=O)N1Cc1cccc(OC)c1 | 1 | 2
Cc1cc(C)cc(NC(=O)NCC2CCN(Cc3cnn(C)c3)C2)c1 (stereo not drawn) | -1 | -1
COc1ccc([C@H](C)NC(=O)c2c(C)noc2-c2ccco2)cc1 | -1 | 4
CCOC(=O)CN(C(=O)c1cccs1)[C@H]1[C@H](OC)[C@@H]2O[C@H]1c1ccccc12 | 27 | 14
O=C(c1cnn(-c2ccccc2)c1)N1CCCC(CO)(CCCc2ccccc2)C1 (stereo not drawn) | 8 | 17
COc1ccc(OC)c(-c2cccc(-c3cccc(NC(=O)C(F)(F)C(F)(F)C(F)(F)F)c3)n2)c1 | -5 | -3
Cn1cc(CN2CC3C[C@@H]4CC2C[C@H](C3)C4)c(-c2ccc3c(c2)OCCO3)n1 | 4 | 6
O=c1c2ccccc2nnn1Cc1c(F)cccc1Cl | -2 | 3
COc1cn2c(cc1=O)C(=O)N(CCNC(=O)CC(C)(C)C)CC2 | 12 | 18
COc1coc(C(=O)Nc2cccc(Cl)c2C)cc1=O | 1 | 8
CC(=O)N1CCC(NC(=O)c2ccc(Oc3ccccc3)cc2)CC1 | -10 | -8
O=C(c1ccccc1)c1ccc2c(c1)N=C1CCCC(=O)C1C(c1ccc(O)cc1)N2 (stereo not drawn) | -6 | -2
COc1ccc(C(=O)N2C(=S)C(c3ccccc3)=NC23CCCC3)cc1OC | -7 | -1
COc1ccccc1-n1cc(CN2CCN(Cc3cccs3)C(CCO)C2)cn1 (stereo not drawn) | 1 | 3
O=C(Nc1cccc(-c2nc3ccccc3c(=O)o2)c1)c1ccc([N+](=O)[O-])cc1 | -6 | 4
NS(=O)(=O)c1ccc(CNC2CC(=O)N(c3ccccc3F)C2=O)cc1 (stereo not drawn) | 2 | 2

# Complete entries as entered above. Order of screens: NPYLR7 agonist max-min, NPYLR7 agonist
# COc1ccccc1-n1cc(CN2CCN(Cc3cccs3)C(CCO)C2)cn1 (stereo not drawn) reads 1, 3
# COc1ccc(C(=O)N2C(=S)C(c3ccccc3)=NC23CCCC3)cc1OC reads -7, -1

# (continued)
smiles | NPYLR7 agonist max-min | NPYLR7 agonist
CCNC(=O)Nc1ccc(N(C)C)c(CN(Cc2ccco2)C(=O)c2ccc(OC)cc2)c1 | 29 | 27
CC(C)(C)n1ncc(N2CCN(C(=O)c3ccc(F)cc3Cl)CC2)c(Cl)c1=O | -1 | -1
Cc1cc(C2=NNC(=Cn3cnc4c3c(=O)n(C)c(=O)n4C)O2)c(C)o1 | 3 | 4
Cc1c(NC(=S)NC(=O)c2cccc([N+](=O)[O-])c2)c(=O)n(-c2ccccc2)n1C | 6 | 8
Cc1cccc(/C=C2/C(=N)N3N=C(c4ccccc4)SC3=NC2=O)c1 | 0 | 1
CCc1nc(NCCN2CCCC2)c2ccccc2n1 | 8 | -1
NC(=O)COc1ccc(C(=O)N2CCCC2CCc2ccccc2)cc1 (stereo not drawn) | 4 | 5
C=CCCC(O)CN(Cc1ccc(F)cc1)Cc1ccc(OC)c(OC)c1 (stereo not drawn) | 24 | 22
Cc1onc(C(=O)NC(c2ccncc2)c2ccc(Cl)cc2)c1CO (stereo not drawn) | -7 | -4
COc1ccc(Cl)cc1NC(=O)CCC1CCCN(C(=O)Cc2c(C)noc2C)C1 (stereo not drawn) | 5 | 12
NC(=O)Cn1cnc2sc3c(c2c1=O)CCCC3 | 8 | 13
Cc1ccc(S(=O)(=O)NCCn2nc(-c3ccccc3)ccc2=O)cc1C | 2 | 1
COc1ccc(Nc2nc(NCCCO)nc3[nH]ncc23)cc1 | 2 | 2
CCc1nccn1CCC(=O)N1C[C@H]2CC=C(C)C[C@H]2C1 | -7 | -8
Cc1cc(C(=O)N2CCC2(C)C(=O)NCc2cccc3ccccc23)nn1C (stereo not drawn) | 2 | 0
CC1CCC(N2CC(C(=O)N3CCc4c(nnn4C)C3)CC2=O)CC1 (stereo not drawn) | 13 | 7

# An excerpt of these results, with each value named.
Cc1cccc(/C=C2/C(=N)N3N=C(c4ccccc4)SC3=NC2=O)c1
- NPYLR7 agonist max-min = 0
- NPYLR7 agonist = 1

CCc1nc(NCCN2CCCC2)c2ccccc2n1
- NPYLR7 agonist max-min = 8
- NPYLR7 agonist = -1

NC(=O)COc1ccc(C(=O)N2CCCC2CCc2ccccc2)cc1 (stereo not drawn)
- NPYLR7 agonist max-min = 4
- NPYLR7 agonist = 5

C=CCCC(O)CN(Cc1ccc(F)cc1)Cc1ccc(OC)c(OC)c1 (stereo not drawn)
- NPYLR7 agonist max-min = 24
- NPYLR7 agonist = 22

# Going on with the list:
smiles | NPYLR7 agonist max-min | NPYLR7 agonist
CN1CCN2CCN(C(=O)c3ccc4c(c3)N(C)C(=O)CO4)CC2C1=O (stereo not drawn) | 5 | 8
COc1ccc(C(=O)N(CC(=O)N(Cc2cccn2Cc2ccc(Br)cc2)C2CCCCC2)CC(C)C)c(OC)c1 | 19 | 20
Cc1ccc(C)c(Cc2c(C)nc(-c3ccccc3)nc2N2CCN(C(=O)N(C)C)CC2)c1 | 10 | 5
OC1CCN(CCNc2nccc(CCC(F)(F)F)n2)CC1 | -6 | -5
CC(C)C(C)OC1CC(=O)CC2C(=O)c3c(O)ccc(O)c3C(=O)C12 (stereo not drawn) | 13 | 9
Cc1ncc(-c2ccc(C)c3ncccc23)[nH]1 | 0 | 1
Cc1ccc(S(=O)(=O)NC(=O)C2(C)CCN2C(=O)Cc2ccccc2)nc1 (stereo not drawn) | -1 | 1
COc1cc(CCNC(=O)NC2CCCCC2C)ccc1OC(F)F (stereo not drawn) | -4 | -3
CCOC(=O)c1c(N)sc(C(=O)N(CC)CC)c1C | -9 | -6
CCn1nc(C)c(CNC(=O)CC2C(=O)NCCN2CC2CCCCC2)c1C (stereo not drawn) | 5 | 7
CCOC(=O)c1ccc2c(C)noc2n1 | -2 | 0
Cc1cc(OCC(=O)NC(Cc2ccc(F)cc2)C(C)C)no1 (stereo not drawn) | -3 | -2
O=C(c1ccc(C2SCCCS2)cc1)N1CCOC2CCCCC21 (stereo not drawn) | 2 | 4
CC(C)Cc1nnc(NC(=O)c2ccccc2)s1 | 8 | 12
COc1cc(C(=O)N2CCN(C(=O)COc3ccccc3)CC2)cc(OC)c1OC | 15 | 2
O=C(NC(=S)NC1CCSC1=O)c1cccc([N+](=O)[O-])c1 (stereo not drawn) | 4 | 1
COc1ccc(-c2nc(CSc3ccc(Cl)cc3)cs2)cc1OC | -6 | -1
CCn1nc(C(=O)N(Cc2ccccn2)c2nc3c(F)cccc3s2)cc1C | -2 | -2
O=C(NCCNc1cccnc1)c1cc2ccccc2oc1=O | -2 | 4
Cc1ccc(C2NC(=O)c3ccc(Cl)cc3N2)o1 (stereo not drawn) | 4 | 3
O=C1OC(c2cccc(F)c2)=N/C1=C\c1ccc2c(c1)OCO2 | -2 | -2
S=c1[nH]nc(-c2sc3ccccc3c2Cl)n1CCN1CCOCC1 | 1 | 1
OCc1cccc(-n2ccnc2-c2ccc(Cl)cc2F)c1 | 0 | 0
Cc1ccsc1CN(Cc1ccc(F)cc1)C(=O)CN(C(=O)c1cc(C(F)(F)F)cc(C(F)(F)F)c1)C1CCCCC1 | 18 | 2
CCn1ccc(C(=O)Nc2cccc3nc(C)ccc23)n1 | -2 | 1
O=C(O)CC1N=C(c2ccccc2)OC1=O (stereo not drawn) | 13 | 17
CCCCC(=O)NC(NC(=O)CCCC)c1ccccc1OC | 8 | 8
O=S(=O)(NN1CCOCC1)c1ccc(Br)s1 | -3 | 2
CC1CN(C(=O)CN2CCc3sccc3C2c2cccc(F)c2)CCN1C(=O)c1ccc(F)cc1 (stereo not drawn) | -6 | 5
Cc1ccc(CSc2nn3c(=O)c(C)nnc3s2)cc1 | -2 | 1
O=c1[nH]c(-c2cccs2)nc2sc3c(c12)CCC3 | -5 | -3
COc1ccc(CN2CCN(c3ccc(F)cc3F)C(=O)C2C)cc1 (stereo not drawn) | 12 | -1
CC(OCC(F)(F)F)C(=O)NCC1CC1 (stereo not drawn) | 13 | 15
CCN1C(=O)C(=Cc2ccsc2)SC1=S | -20 | -11
CCCSc1nc2c(c(=O)[nH]1)C(c1ccc(F)cc1)C(C(=O)OC(C)C)C(C)=N2 (stereo not drawn) | 1 | 2
COC(=O)C(C)Sc1nc(N)c(NC(=O)c2ccc(OC)c(OC)c2)c(=O)[nH]1 (stereo not drawn) | 7 | 9
Cc1ccc(C(=O)O)c(N2CCC3(CCNCC3)C2)n1 | 6 | 7
COc1cccc(-c2nc(OC(C)C)nn2-c2cccc(NC(=O)c3cccc([N+](=O)[O-])c3)c2)c1 | 19 | 24
O=C(NCCCS(=O)(=O)N1CCN(c2ccccc2)CC1)c1ccc(=O)[nH]c1 | -1 | 0
CCN(CC)Cc1ccccc1CNC(=O)c1nn(-c2ccccc2)c(=O)c2ccccc12 | 0 | 0
Cc1ccc(-c2nc3scc(CCNS(=O)(=O)c4c(C)cc(C)cc4C)n3n2)cc1 | -3 | -4
CCCCCCn1c(CN2CC(C)CC(C)C2)nc2c1c(=O)n(C)c(=O)n2C (stereo not drawn) | 3 | 7
CC(CN1CCCC1=O)NC(=O)NCC#Cc1ccc(C(F)(F)F)cc1 (stereo not drawn) | -3 | 3
O=C(CCc1nc(-c2ccncc2)no1)Nc1ccc(Oc2ccccc2)cc1 | 3 | 7
Nc1nc(Nc2ccc(C(=O)N[C@H]3C[C@H]4CC[C@@H]3C4)cc2)cc(Nc2ccc3ncsc3c2)n1 | 1 | 1
CCN(CC)c1ccc(C(=O)NNC(=O)CN2CCCCCC2)cc1 | 10 | 3
Cc1nc(C(=O)N2CCC(O)(c3ccc(Cl)cc3)CC2)cs1 | -7 | -5
COCCNC(=O)c1ccc(CSc2nnc(-c3ccccc3Cl)n2-c2ccc(OC)cc2)cc1 | 16 | 13
Cc1ccnc(Nc2ccc(NCCNC(=O)Nc3cccc(C)c3C)nn2)c1 | 3 | 13
COCc1cc(CN2CCC3(CCCN(Cc4cc(OC)ccc4F)C3)C2)ccc1OC (stereo not drawn) | 6 | 16
Cc1ccc(-c2nc(CNc3ccnc(C)n3)[nH]c2-c2ccccn2)cc1 | 2 | 3
CN(Cc1cccc2cnccc12)C(=O)c1cc(COc2ccc(F)cc2F)on1 | -4 | -5
COCc1c(Br)c(C)nc(OCC(=O)N/N=C\c2cc3c(cc2Br)OCO3)c1C#N | 25 | 13
CC1=C(C(=O)OC2CCCCCCC2)C(c2ccccc2F)NC(=O)N1 (stereo not drawn) | -5 | -3
